# Screens deposited in PubChem BioAssay by National Center for Advancing Translational Sciences (NCATS).
# Six1-Eya2 inh: qHTS Assay for Inhibitors of the Six1/Eya2 Interaction. activity change, % (no concentration beside the values). AlphaScreen GST-Six1/His-Eya2 binding, biochemical; active compounds read low; control for the full effect not named in the record. actives 0.56% (n = 360,000). Homeobox protein SIX1 (Homo sapiens) + Protein phosphatase EYA2 (Homo sapiens), …. AID 651725, 2012; in the data active = activity change below about -65%; inconclusive = about -30% to -65%; inactive = above about -30%; also: % is scaled to controls: 0 for no effect and ±100 for the full control effect
#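 AlphaScreen luminescence read after one hour at 37 °C in darkness. Pin-transferred compounds met GST-Six1 and His-Eya2 protein (5X stock 250 nM/500 nM) plus glutathione donor and Ni-chelate acceptor beads (5X, 50 ug/mL).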
# D2 ag: Beta-Arrestin HTS for Positive Allosteric Modulators of the Human D2 Dopamine Receptor: Agonists; D(2) dopamine receptor (Homo sapiens), P14416; activation, % (no concentration beside the values); actives 0.084% (n = 360,000); DiscoveRx PathHunter D2 beta-arrestin, luminescence, 90 min; 100% = 57 uM dopamine signal; in the data active = activation above about 40%; inconclusive = about 15% to 40%; inactive = below about 15%; also: compound concentration not given in the record; the text of the record calls up to 30% inactive
# Target sequence (P14416 whole entry, looked up): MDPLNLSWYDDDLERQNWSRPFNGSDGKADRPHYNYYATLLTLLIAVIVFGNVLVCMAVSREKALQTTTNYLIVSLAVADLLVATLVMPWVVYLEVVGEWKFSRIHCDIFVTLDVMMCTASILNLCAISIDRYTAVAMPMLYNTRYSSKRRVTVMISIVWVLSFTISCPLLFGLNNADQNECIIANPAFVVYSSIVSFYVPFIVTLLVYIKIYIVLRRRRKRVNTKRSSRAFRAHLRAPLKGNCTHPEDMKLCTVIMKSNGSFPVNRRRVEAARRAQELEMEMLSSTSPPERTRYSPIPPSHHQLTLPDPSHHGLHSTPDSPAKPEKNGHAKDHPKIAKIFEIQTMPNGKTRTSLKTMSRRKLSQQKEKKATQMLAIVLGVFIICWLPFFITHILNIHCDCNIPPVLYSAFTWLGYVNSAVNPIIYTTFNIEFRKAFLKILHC
#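 DiscoveRx PathHunter D2 beta-arrestin cells (2,100/well) attached overnight, then compound-stimulated 90 min at 37 C in HBSS/10 mM HEPES/0.1% Tween-20 buffer; beta-galactosidase complementation read by luminescence after 1 h at ambient temperature. Dopamine 57 uM final (EC100) as control.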
# CtBP-E1A blk: qHTS Assay for Inhibitors of the CtBP/E1A Interaction. AlphaScreen GST-E1A/His-CtBP binding, 1536-well; active compounds read low; control for the full effect not named in the record. activity change, % (concentration not given with the values). actives 0.49% (n = 340,000). CtBP / adenovirus E1A interaction (AlphaScreen); in the data active means activity change below about -65%; inconclusive means about -30% to -65%; inactive means above about -30%; also: % is scaled to controls: 0 for no effect and ±100 for the full control effect
#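 Homogeneous bead-based format: GST-tagged E1A captured on glutathione donor beads, His-tagged CtBP on nickel acceptor beads; compounds precede bead addition by 2 h at 37 °C.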
# TRPML1 ag: qHTS for Agonists of the Human Mucolipin Transient Receptor Potential 1 (TRPML1) | Mucolipin-1 (Homo sapiens), Q9GZU1 | TRPML1-expressing cells, Ca2+ dye fluorescence, FDSS; host cell line not named in the record; reference of the full effect not given here | activation, % (test concentration not listed) | actives 0.12% (n = 410,000) | AID 624414, 2012; in the data active = activation above about 50%; inconclusive = about 30% to 50%; inactive = below about 30%; also: 0% is about no effect; the text of the record puts the active cut at 80%
# Target sequence (Q9GZU1 whole entry, looked up): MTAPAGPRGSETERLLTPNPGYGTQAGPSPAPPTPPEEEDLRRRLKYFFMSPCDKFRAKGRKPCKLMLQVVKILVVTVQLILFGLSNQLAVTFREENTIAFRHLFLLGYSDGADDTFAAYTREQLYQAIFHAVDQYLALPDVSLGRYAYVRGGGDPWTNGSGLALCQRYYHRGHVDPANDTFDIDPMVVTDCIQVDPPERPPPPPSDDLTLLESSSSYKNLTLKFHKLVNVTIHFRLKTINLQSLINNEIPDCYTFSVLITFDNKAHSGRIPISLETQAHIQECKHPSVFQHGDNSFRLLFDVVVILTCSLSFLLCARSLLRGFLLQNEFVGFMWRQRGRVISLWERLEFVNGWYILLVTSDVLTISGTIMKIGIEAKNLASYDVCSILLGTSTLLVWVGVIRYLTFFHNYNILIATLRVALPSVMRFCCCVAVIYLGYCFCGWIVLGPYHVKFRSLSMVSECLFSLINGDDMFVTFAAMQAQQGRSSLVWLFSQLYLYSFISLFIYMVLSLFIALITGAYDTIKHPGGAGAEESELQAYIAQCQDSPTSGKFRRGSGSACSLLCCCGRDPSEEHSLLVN
#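 Tet-induced TRPML1-DL cells, 1,500 per well, cultured overnight, were loaded with a no-wash Ca2+ dye for 45–90 min. Calcium fluorescence was recorded on the FDSS for 110 s after compound addition, before the EC80 agonist (4 uM 54-4) was added.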
# D2 potentiator: Beta-Arrestin HTS for Positive Allosteric Modulators of the Human D2 Dopamine Receptor: Potentiators | D(2) dopamine receptor (Homo sapiens), P14416 | DiscoveRx D2 beta-arrestin cells, luminescence, 90 min; 100% = 57 uM dopamine signal | potentiation, % (no concentration beside the values) | actives 0.23% (n = 360,000); active = potentiation of 50% or more; inconclusive = 30% to 50%; inactive = 30% or less;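 also: compound concentration not given in the record; tested on top of an EC20 dose of dopamine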
#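 D2 cells co-treated with compound plus 50 nM dopamine (EC20) for 90 min at 37 deg C to detect potentiation. Beta-arrestin recruitment was read as enzyme-fragment luminescence after 1 h at ambient temperature. Full response was set by 57 uM dopamine.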
# PINK1 expr mod: A Quantitative High throughput Screen to Identify Chemical Modulators of PINK1 Expression; Potency, µM (titrated, usually from 76.6 µM), for inactives: top-dose activation (PINK1 increase), usual class: activators; actives 0.2% (n = 410,000); PINK1 immunofluorescence, high-content cytometry, 24 h; AID 624263, 2012; active = well fitted activation curve with a large enough effect; inconclusive = small, poorly fitted or top-dose-only effect; inactive = flat fitted curve, though single readings scatter; cell line not stated here;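 also: potency is read from the fitted curve at half-maximal effect; % of control where 0% means no effect; nearly all actives have a fitted effect of over 65% in size; a mitochondrial uncoupler was the plate control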
#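 Readout is PINK1 immunofluorescence, quantified alongside mitochondrial, cell and nuclear markers by laser-scanning microplate cytometry. Cells from a stable line were exposed to compound titrations (5 concentrations) for 24 hours, with CCCP controls.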
# Starred values were filed as active, the others as inactive; ? = inconclusive; · = no result given; [ ] = dose if it differs, or a comment.
# A first look (6 entries):
SMILES,Six1-Eya2 inh,D2 ag,CtBP-E1A blk,TRPML1 ag,D2 potentiator,PINK1 expr mod
O=C1CNC(=S)N1Cc1ccccc1Cl,-2,-8.7,·,0.9,-9,0.3%
COc1ccc(CCNC(=O)COC(=O)C23CC4CC(CC(C4)C2)C3)cc1,4,0.2,-6,0.3,-9,3.3%
Cc1ccc(OCC(=O)Nc2ccc(N3CCCC3)cc2)cc1C,-22,-2.3,-17,-0.3,-10,1.8%[38.3 µM]
CC(C(=O)N1CCCc2ccccc21)N1CCN(c2ccccn2)CC1 (stereo not drawn),-2,-1.9,-16,2.8,-10,-0.8%
CCOc1ccccc1NC(=O)C(OC(=O)c1ccccc1O)c1ccccc1 (stereo not drawn),6,-0.3,-2,2.5,15,15%
Cc1noc(NS(=O)(=O)c2ccc(N/C=C\C(=O)c3cccs3)cc2)c1C,-21,0.8,·,0.1,-15,-1.5%

# The whole of this part, from the start:
SMILES,Six1-Eya2 inh,D2 ag,CtBP-E1A blk,TRPML1 ag,D2 potentiator,PINK1 expr mod
O=C1CNC(=S)N1Cc1ccccc1Cl,-2,-8.7,·,0.9,-9,0.3%
COc1ccc(CCNC(=O)COC(=O)C23CC4CC(CC(C4)C2)C3)cc1,4,0.2,-6,0.3,-9,3.3%
Cc1ccc(OCC(=O)Nc2ccc(N3CCCC3)cc2)cc1C,-22,-2.3,-17,-0.3,-10,1.8%[38.3 µM]
CC(C(=O)N1CCCc2ccccc21)N1CCN(c2ccccn2)CC1 (stereo not drawn),-2,-1.9,-16,2.8,-10,-0.8%
CCOc1ccccc1NC(=O)C(OC(=O)c1ccccc1O)c1ccccc1 (stereo not drawn),6,-0.3,-2,2.5,15,15%
Cc1noc(NS(=O)(=O)c2ccc(N/C=C\C(=O)c3cccs3)cc2)c1C,-21,0.8,·,0.1,-15,-1.5%
O=c1[nH]c(=O)n(C2CCCO2)cc1Br (stereo not drawn),12,1.7,9,-0.4,7,-1.5%
Cc1ccc(C(=O)N/C(=C\c2cccs2)C(=O)NCCc2ccccn2)cc1C,-10,-2.9,-20,0.9,-8,0.3%
Cc1ccc(C(=O)NNC(=O)c2ccc(Br)s2)cc1S(=O)(=O)N1CCOCC1,-27,-1.0,·,-1.5,-12,2.0%
c1ccc2cc3[nH]c(CN4CCCCC4)nc3cc2c1,-1,-0.9,0,0.1,-11,3.1%
CC(=O)Nc1ccc(S(=O)(=O)NC(CC(=O)N(C)Cc2ccccc2)C(C)C)cc1 (stereo not drawn),11,-0.3,-4,-0.9,8,0.0%
Cc1ccccc1NC(=O)CC1(c2ccc(N(C)C)cc2)C(=O)c2ccccc2C1=O,-17,-1.5,-7,-0.7,3,-2.1%
COc1ccc(NC2CCCN(C(=O)c3ccc4[nH]c(C)c(C)c4c3)C2)cc1OC (stereo not drawn),-7,2.9,-10,-0.3,17,-0.2%
CCc1ccc(CN(C)C(=O)c2cc(S(=O)(=O)N3CCN(CC)CC3)ccc2Cl)cc1,2,0.7,-21,3.1,-38,-2.3%
CC(=O)Nc1ccc(OC(=O)COc2ccc(Br)cc2)cc1,8,-4.6,-4,3.7,-1,0.6%
COCC(=O)Nc1ccc2nc3n(c(=O)c2c1)CCCCC3,3,-1.0,1,0.1,1,-0.3%
CCN(C(=O)CSc1nnc(Cn2nnc3ccccc32)o1)c1nc(C)cs1,3,0.0,1,0.0,-6,-0.9%
COC(=O)CSc1nnc(-c2ccc(S(=O)(=O)N3CCCC3)cc2)n1C,3,-3.3,0,0.0,-1,4.5%[38.3 µM]
CCn1c(SC(C)C)nnc1-c1cc(-c2ccccc2)sc1N,-10,-2.4,13,0.8,15,-4.4%
CSc1ccc(CN2CCCC(N3CCN(c4ccccc4)CC3)C2)cc1 (stereo not drawn),?,-2.2,?,2.0,-4,1.0%
COc1ccccc1NC(=S)Nc1cccc2cnccc12,0,5.6,2,-0.4,2,1.3%
COc1ccc(NS(=O)(=O)c2cccc(C(=O)NNC(=O)c3ccc(O)c(Cl)c3)c2)cc1,-13,-5.4,·,-0.3,-12,1.6%
Cc1ccc(N(CCC(=O)O)S(=O)(=O)c2ccc(C)cc2)cc1,8,-0.2,-6,-0.1,1,-2.2%
CN1C(C(=O)NCC2CC2)CC2Cn3c(nc4ccccc43)C21 (stereo not drawn),0,-1.8,5,-0.5,-10,1.4%
O=C(Nc1cc(C(F)(F)F)ccc1F)C1CCC1,-3,-5.4,14,1.4,-8,4.8%

# Next part
SMILES,Six1-Eya2 inh,D2 ag,CtBP-E1A blk,TRPML1 ag,D2 potentiator,PINK1 expr mod
O=C(NCc1ccccc1)c1ccc[n+]([O-])c1,-3,5.3,·,·,24,1.3%
O=C(CN1CCN(C(=O)CNC(=O)c2ccc3c(c2)OCO3)CC1)Nc1ccccc1Cl,1,6.2,-5,-0.8,-1,0.7%
Cc1[nH]c2ccc(C(=O)N3CCCCC3)cc2c1C,-7,-4.2,0,-1.1,-26,1.4%
COc1ccc(OCCOCCN2CCOCC2)cc1,-10,-0.2,-6,-0.2,5,2.5%[38.3 µM]
COc1ccc(NC(=O)NNC(=O)c2ccc(-c3ccccc3)cc2)cc1,-4,0.1,5,2.3,-8,6.8%
CCCCn1c(N)c(N(CCOC)C(=O)CSc2ccc([N+](=O)[O-])cc2)c(=O)[nH]c1=O,-2,8.9,-1,0.9,1,-0.3%
Nc1ccccc1Sc1cc(Cl)nnc1Cl,-1,5.4,·,-0.7,5,0.4%
CN(C)C(=O)c1coc2nc3ccccc3nc12,-21,-7.4,4,0.0,-6,1.7%
COc1ccc2c(c1)CC(=O)NC=C2,8,-3.5,-2,0.0,-6,1.0%
CCC1Sc2ccc(S(=O)(=O)CCC(=O)Nc3ccccc3Cl)cc2NC1=O (stereo not drawn),4,11,-8,0.9,-7,0.9%
C=CCn1c(SCc2nc3ccccc3[nH]2)nnc1-c1ccccn1,-11,0.2,-4,-1.2,8,3.5%
CCOC(=O)C1=C(O)/C(=C/c2ccc(-c3ccccc3C(=O)O)o2)SC1=Nc1ccc(OC)cc1,-3,-2.8,-20,0.4,-2,0.2%
O=C(Nc1ccc(Cl)cc1)c1cccc(NC2=NC3CS(=O)(=O)CC3S2)c1 (stereo not drawn),3,-2.8,-17,0.2,-1,0.2%
COC(=O)c1ccc(C23CC4(C2)[C@H](CN(Cc2cccnc2)[C@@H]4c2ccccc2)C3c2ccccc2)cc1 (stereo partly drawn),-16,-5.8,-14,-0.4,-19,2.7%
CCCNC(=O)C(Cc1ccc(Br)cc1)NC(=O)c1ccc(C#N)cc1 (stereo not drawn),11,-1.5,-11,0.1,-1,1.6%
COc1ccc(OC)c(/C=C/C(=O)N2CCN(S(=O)(=O)c3ccc(C)cc3C)CC2)c1,22,1.9,0,1.9,1,1.8%
CCc1ncc(C(O)c2ccc(Cl)cc2)n1Cc1ccccc1 (stereo not drawn),-3,-6.7,-14,0.2,-19,0.1%
O=C(Nc1nccs1)C1CCN(S(=O)(=O)c2ccc(Cl)c(C(F)(F)F)c2)CC1,-2,-2.6,1,-0.6,1,11%
O=c1[nH]c2cc3c(cc2cc1C(c1nnnn1C1CCCCC1)N1CCSCC1)OCCO3 (stereo not drawn),-2,-0.7,0,-0.1,-7,1.8%[38.3 µM]
CC1CCCCC1NC(=O)/C=C/c1nc2ccccc2s1 (stereo not drawn),1,-1.3,8,0.8,-5,5.1%
COc1ccc(CCNC(=O)CCN2C(=O)[C@@H]3Cc4ccccc4CN3C2=O)cc1OC,5,1.5,·,0.7,12,1.0%
O=C(NN1C(=O)/C(=C/c2cccs2)SC1=S)c1ccncc1,-70*,-4.9,-72*,-0.6,-10,-2.1%
CC(C)c1cccc(C(C)C)c1NC(=O)OC1CCCCC1,8,-6.8,12,0.4,-5,6.0%
CC(C)n1nnnc1-c1cccc(Cl)c1,2,-1.0,7,-0.7,-10,2.2%[38.3 µM]
COc1cnc(-c2ccccn2)nc1Oc1ccccc1Cl,3,0.6,-2,-0.1,-2,0.5%

# Additional compounds follow.
SMILES,Six1-Eya2 inh,D2 ag,CtBP-E1A blk,TRPML1 ag,D2 potentiator,PINK1 expr mod
O=C1OCc2ccc([N+](=O)[O-])cc21,-2,-0.4,9,-0.3,-2,5.4%
CCC(=O)N(Cc1cc2cccc(C)c2[nH]c1=O)c1ccccc1OC,-1,-2.6,3,0.3,-3,·
CC(C)CC(=O)Nc1ccc(Cc2ccncc2)cc1,-14,-0.9,-8,0.8,0,-0.1%
O=[N+]([O-])c1cccnc1S(=O)(=O)c1ccccc1,9,1.9,3,-0.5,-5,-1.4%
O=C(c1ccc(Cl)s1)N1CCc2ccccc21,18,-1.7,21,3.2,-4,-2.7%[38.3 µM]
CC(=O)Nc1ccc(C(=O)OCc2ccc(F)cc2Cl)cc1,4,-1.7,-1,1.0,-3,8.2%
CCC(C)c1ccc(OCCn2ccnc2)cc1 (stereo not drawn),-12,-6.8,-3,-0.6,13,-0.9%
CCCC(=O)N1CCN(c2nc3ccc(CC)cc3s2)CC1,7,-1.9,·,-0.2,-1,1.5%
Cc1ccc(C)n1-c1ccc(-c2ccn[nH]2)cc1,0,3.1,3,1.5,-2,1.3%
O=C(NCC(c1cccnc1)N1CCOCC1)Nc1ccccc1 (stereo not drawn),1,-6.4,1,0.4,-22,1.8%
CCCCCCCC(=O)NN=C1CCN(Cc2ccccc2)CC1,3,-2.2,4,-1.5,-10,2.3%
CCCN=C1NC(=O)C(CC(=O)NCCc2ccc(OC)c(OC)c2)S1 (stereo not drawn),-4,-6.3,6,-0.3,1,3.1%
CCOC(=O)N1C(=O)NC(=O)C1c1ccc(Cl)cc1 (stereo not drawn),4,-1.7,0,2.9,-3,-2.5%
Cn1c2c(c3ccccc31)CCSC2=O,13,-3.6,10,0.1,-9,3.2%[38.3 µM]
CCOC(=O)C1CCN(C(=O)CN(c2ccc3c(c2)OCCO3)S(=O)(=O)c2ccccc2)CC1,3,-3.5,-4,1.6,-21,-2.6%
COc1cccc(CN2CC(C(=O)N(C)Cc3[nH]c4ccccc4c3C)CCC2=O)c1 (stereo not drawn),-7,-2.8,-6,-0.5,-4,-0.6%
CCc1nn(CC(=O)NCc2cccnc2)c(=O)c2cc3occc3n12,3,0.8,-10,-0.3,-15,0.3%
CCOc1ccc(C(=S)N2CCOCC2)cc1OC,12,0.1,-2,-0.4,-2,-1.6%
Cc1ccccc1-c1nnc(SCC(=O)Nc2cccnc2Cl)o1,2,0.1,5,0.3,-6,2.2%
COc1ccc2cc(CN(CC3CCCO3)C(=O)Nc3ccccc3OC)c(=O)[nH]c2c1 (stereo not drawn),0,-0.5,12,-0.3,8,6.5%
COc1ccc(NC(=O)c2cn(CCC#N)nc2-c2cccs2)cc1,-1,-0.4,·,0.5,-4,1.9%
